Bioassay records from PubChem BioAssay.
E coli growth: inhibitors of Escherichia coli growth; OD600 absorbance (test concentration not listed); OD600, 23 h; stronger effect = lower value; 330,000 compounds, 0.21% hits; AID 1053175;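 active = OD600 absorbance below the run mean of sample wells minus 3.6 SD, in any replicate, cut at about 0.56 in these data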;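 note: stock transfer was 300 nL into about 60 µL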
Ecoli rRNA inh: selective bacterial rRNA inhibition in E. coli | E. coli WT GFP vs humanized-ribosome RFP mutants, fluorescence, 24 h; stronger effect = lower value; DMSO median 0, no signal -100 | GFP signal change (wild-type ribosome), % (concentration not given with the values) | 350,000 compounds, 1.6% hits;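 active = significant combined selectivity score with lowered wild-type GFP, culture density cut under 30%, mutant RFP and density less affected; inactive = any of these conditions unmet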; note: one replicate is shown; some compounds called inactive have numbers as strong as hits
ALR H2O2 inh: inhibitors of human sulfhydryl oxidase ALR; P55789; inhibition, % (concentration not given with the values); purified ALR, DTT oxidation, H2O2 HRP-luminol luminescence; AID 485317; 290,000 compounds, 3.8% hits;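 active = mean and each replicate at 75% or more; inconclusive = only one of the two met; inactive = neither met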;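 note: stock transfer was 7.5 nL into about 7.5 µL; 0% = neutral wells and 100% = wells with inactivated enzyme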
FGF22 binding: binders of recombinant human FGF22 by thermal shift | 340,000 compounds, 1.5% hits | SYPRO orange fluorescence; percent of sucrose octasulfate shift, DMSO zero | calls only at 9.99 µM;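 active = melting point raised past a set limit in the mean and every replicate; inconclusive = no clear call; three in four hits are not shown here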
MLL AF4-AF9 inh: MLL-AF4/AF9 protein interaction inhibition. 350,000 compounds, 0.47% hits. AlphaScreen, biotin-AF4 peptide binding to FLAG-AF9. inhibition, % at 10 µM. AID 651704;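 active = every replicate reaching a set inhibition limit, whatever the replicate mean, cut at about 25% in these data; inconclusive = mean inhibition reaches that limit but some replicates miss it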;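 note: 0% = plate neutral control median and 100% = total signal loss; the record names both 10 and 1 µM as test concentration; the first replicate is given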
Target sequence (P42568 whole entry, looked up): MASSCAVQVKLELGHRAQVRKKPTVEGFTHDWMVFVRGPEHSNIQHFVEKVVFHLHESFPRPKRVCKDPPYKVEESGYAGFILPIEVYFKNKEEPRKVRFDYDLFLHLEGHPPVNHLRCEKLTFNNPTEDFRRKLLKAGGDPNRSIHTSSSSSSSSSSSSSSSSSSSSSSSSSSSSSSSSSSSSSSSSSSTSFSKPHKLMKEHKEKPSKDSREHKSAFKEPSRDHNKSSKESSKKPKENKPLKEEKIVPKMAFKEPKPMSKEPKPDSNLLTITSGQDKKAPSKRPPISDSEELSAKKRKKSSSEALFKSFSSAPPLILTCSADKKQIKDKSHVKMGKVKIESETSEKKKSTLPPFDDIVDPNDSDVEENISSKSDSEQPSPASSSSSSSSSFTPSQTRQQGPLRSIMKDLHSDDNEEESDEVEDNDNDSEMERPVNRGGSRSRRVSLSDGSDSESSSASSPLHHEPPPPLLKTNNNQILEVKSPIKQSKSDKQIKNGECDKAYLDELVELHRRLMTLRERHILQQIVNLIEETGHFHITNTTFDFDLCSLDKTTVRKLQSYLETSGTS
Vif A3G: HIV-1 Vif–A3G interaction blockers – biochemical, TR-FRET, GST-Vif 1-94, biotin-A3G peptide, dose response retest, primary screen (AID 1117319) | inhibition, %; hits with a dose series show IC50 in µM | 260,000 compounds, 0.57% hits | TR-FRET GST-Vif / biotin-A3G peptide binding; higher % means a stronger effect; test concentration not given here; strong numbers were not always called active;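 active = above the screen mean plus three standard deviations and confirmed in dose response; inconclusive = results disagree or hit not tested in dose response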;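 note: Vif residues 1-94 fused to GST binding biotinylated APOBEC3G peptide 110-148; 0% = full assay without inhibitor and 100% = GST in place of GST-Vif; retest series ran down from 100 µM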
HNF4A DNA FP: change in binding of human HNF4 alpha to DNA; AID 1224865; activity change, % at 10 µM; 360,000 compounds, 0.3% hits; HNF4a-FITC DNA binding, fluorescence polarization, 1 h; in the data active = activity change above about 30%, passing the limit was not always enough;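 note: controls were the assay level and a saturating level of protein; the project sought stronger binding though the title names inhibitors; some compounds called inactive have numbers as strong as hits; positive values seem to mean higher polarization but the record does not say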
Target sequence (P41235 whole entry, looked up): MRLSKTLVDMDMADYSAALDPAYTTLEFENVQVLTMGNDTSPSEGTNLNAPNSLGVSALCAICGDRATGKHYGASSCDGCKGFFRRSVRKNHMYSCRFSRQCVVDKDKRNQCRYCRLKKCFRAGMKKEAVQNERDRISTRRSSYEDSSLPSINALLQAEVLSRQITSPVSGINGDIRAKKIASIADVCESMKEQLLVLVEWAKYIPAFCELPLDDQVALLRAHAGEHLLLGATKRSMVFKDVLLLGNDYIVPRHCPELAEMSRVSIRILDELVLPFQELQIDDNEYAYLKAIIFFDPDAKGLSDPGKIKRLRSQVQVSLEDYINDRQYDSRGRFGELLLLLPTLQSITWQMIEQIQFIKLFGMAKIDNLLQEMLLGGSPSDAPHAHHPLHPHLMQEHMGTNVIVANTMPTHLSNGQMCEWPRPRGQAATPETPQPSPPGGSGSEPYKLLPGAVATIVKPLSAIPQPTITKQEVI
Ecoli rRNA inh OD600: recorded beside Ecoli rRNA inh, whose call it bears; OD600 change, %; measured here: OD600 growth;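 optical density of the mix in the first replicate; 0 = DMSO median and -100 = no signal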
Ecoli rRNA inh RFP: also measured in Ecoli rRNA inh; calls as there; RFP signal change, %; measured here: RFP humanized mutant strains;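 first replicate; 0 = DMSO median and -100 = no signal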
* = called active by the depositor; i = inactive; u = inconclusive; x = no result given. These rows are one share of the data; the hit share may differ from the screen's.

Order of results – E coli growth	Ecoli rRNA inh	Ecoli rRNA inh OD600	Ecoli rRNA inh RFP	ALR H2O2 inh	FGF22 binding	MLL AF4-AF9 inh	Vif A3G	HNF4A DNA FP
1: COc1ccccc1CO/N=C/NC(=O)c1c(OC)ccnc1Oc1ccc(F)cc1
  0.72	-13	-14	3.3	4	i	3.7	4%	2.2
2: C=CCn1c(NCc2ccco2)nc2ccccc21
  0.64	0	4	0.3	17	i	-8.4	x	1.3
3: COc1ccc(CNC(=O)C2C3C=CC4(CN(Cc5cccnc5)C(=O)C24)O3)cc1 (centres undefined)
  0.72	x	x	x	0	x	x	0%	0.6
4: C[C@@H]1CN([C@H](C)CO)C(=O)c2cccc(NS(=O)(=O)c3cn(C)cn3)c2O[C@@H]1CN(C)S(C)(=O)=O
  x	3	3	-2.5	x	i	-0.4	x	x
5: Cc1ccc(C(=O)N/C(=C\c2cccs2)C(=O)NCC2CCCO2)cc1C (centres undefined)
  0.66	x	x	x	-7	x	x	-12%	-0.6
6: CC(Sc1ccccn1)C(=O)Nc1ccc2c(c1)OCCO2 (centres undefined)
  0.69	4	2	-0.5	-5	i	0.2	-1%	5.8
7: CC(=O)N1CCc2cc(S(=O)(=O)NCCCOC(C)C)ccc21
  0.77	x	x	x	-19	x	x	u	1.6
8: COc1ccc(/C=C(/NC(=O)c2ccco2)C(=O)N2CCCC2=O)cc1
  0.68	1	2	-1.4	x	i	0.8	-3%	-0.7
9: C[C@H](CO)N1C[C@H](C)[C@H](CN(C)C(=O)c2ccccc2)OCCCC[C@H](C)Oc2ccc(NS(=O)(=O)c3ccc(Cl)cc3)cc2C1=O
  x	-1	-6	2.5	x	i	-3.8	x	x
10: COc1ccccc1N1CCN(S(=O)(=O)CCNC(=O)C(C)Oc2ccccc2)CC1 (centres undefined)
  x	-10	-26	2.5	x	i	0.5	x	0.7
11: Fc1cccc(Cc2c(C3CCCCC3)nc3ccc(Br)cn23)c1
  x	-5	-2	1.7	x	i	0.9	x	13
12: COc1ccc(S(=O)(=O)N(C)C[C@H]2OCCCC[C@H](C)Oc3ccc(NC(=O)Nc4c(C)noc4C)cc3C(=O)N([C@H](C)CO)C[C@@H]2C)cc1
  x	-1	1	2.5	x	i	-1.3	x	x
13: COC(=O)c1nnc(-c2ccccc2)nc1OC
  0.81	x	x	x	-3	x	x	-4%	-1.3
14: Cc1ccc(S(=O)(=O)N[C@H]2C=C[C@@H](CC(=O)NCCCN(C)C)O[C@H]2CO)cc1
  x	4	11	1.1	x	i	-0.4	x	x
15: COc1cc2ccccc2cc1C(=O)Nc1ccc(NC(=O)c2cccs2)cc1
  0.67	3	4	-1.5	x	i	-12	x	3.1
16: Cc1ccc(S(=O)(=O)N2CCOCC2)cc1NC(=O)COC(=O)COc1cccc2c1OC(C)(C)C2
  0.62	5	4	-0.8	-22	i	-6.9	-7%	-0.5
17: C[C@@H]1CN([C@H](C)CO)C(=O)c2cc(C#CC(C)(C)O)cnc2O[C@H]1CN(C)C(=O)C1CCC1
  x	2	8	-2.2	x	i	0.5	x	x
18: Cc1cc(C(=O)N2CCCC(Nc3ccc(C)c(C)c3)C2)nc(C)n1 (centres undefined)
  x	8	9	1.1	x	i	-1.9	3%	2.2
19: Cc1ccc(Nc2nc(NCCO)nc3c2cnn3C)cc1Cl
  0.66	0	7	2.3	2	i	-3.9	x	-0.3
20: CCn1c2ccccc2c2cc(NC(=O)COC(=O)c3ccc(O)cc3)ccc21
  0.75	-37	-40	-3.6	-1	i	-1.9	8%	-1.6
21: CCC(CC)C(=O)Nc1ccccc1NC(C)=O
  0.69	x	x	x	-20	x	x	-2%	-1.2
22: OC(Cn1cncn1)c1ccc(Cl)cc1 (centres undefined)
  0.73	x	x	x	-3	x	x	3%	6.1
23: O=C(N/N=C1\CCCc2ccccc21)c1ccc([N+](=O)[O-])cc1
  x	x	x	x	-2	x	x	5%	2.4
24: Cc1ccc(-c2csc(NC(=O)c3ccc(C)o3)n2)cc1
  0.69	x	x	x	1	x	x	x	1.5
25: CSc1nc2c(c(=O)n1-c1ccc(F)cc1)SCC2
  0.68	7	3	-0.9	0	x	x	0%	0.2
26: Cc1ccc2c(C)nc(SC(C(=O)c3ccccc3)c3ccccc3)nc2c1 (centres undefined)
  0.72	x	x	x	-19	x	x	x	4.3
27: C[C@H](CO)N1C[C@H](C)[C@H](CN(C)CC2CCCCC2)Oc2c(NC(=O)c3ccncc3)cccc2C1=O
  x	2	8	-1.7	x	i	3.2	x	x
28: CCN(CC)c1ccc(C(=O)Nc2cccc(F)c2)cc1
  0.6	x	x	x	10	x	x	4%	-1.6
29: Cc1ccccc1CSc1nc2c(c(=O)[nH]1)CCC2
  0.66	10	4	-9.1	-6	i	11	14%	-1.4
30: C[C@@H]1CN([C@H](C)CO)C(=O)c2cc(NS(=O)(=O)c3cccs3)ccc2O[C@@H]1CN(C)S(=O)(=O)c1ccc(Cl)cc1
  x	-4	-9	0.7	x	i	-2.8	x	x
31: O=C(NC1CCCCC1)c1[nH]c(C(F)(F)F)nc1-c1ccccc1
  x	-10	-31	2.5	x	i	-2.0	x	1.3
32: Cc1ccc(S(=O)(=O)NCC(=O)N2CCN(c3ccccn3)CC2)cc1
  0.7	x	x	x	3	x	x	2%	4.3
33: Cc1ccc(N(CC(=O)NCC2CCCO2)C(=O)CCC(=O)Nc2nccs2)cc1C (centres undefined)
  0.7	3	3	-1.7	-7	i	-3.5	-8%	1.3
34: CC(C)NC(=O)N(C)C[C@@H]1Oc2ccc(N(C)C)cc2CC(=O)N([C@@H](C)CO)C[C@@H]1C
  x	-1	4	-1.2	x	i	-1.0	x	x
35: CN1CCN(C(=O)c2cc3cc(F)ccc3[nH]2)CC1
  0.69	4	8	-1.3	-11	i	2.7	-7%	3.5
36: C[C@@H]1[C@H]2[C@@H]3CC[C@@H](C3)[C@H]2CN[C@H]1c1cn(Cc2ccccc2)c2ccccc12
  0.65	x	x	x	x	i	16	5%	-0.3
37: CCOc1ccc(N2C(=O)CC(SC(=NC)Nc3ccc(F)cc3)C2=O)cc1 (centres undefined)
  0.73	x	x	x	2	x	x	-2%	0.2
38: Cn1c(Cc2ccccc2)[n+](C)c2ccccc21
  0.7	16	-1	0.5	3	i	-3.1	22%	-0.6
39: O=C(N[C@H]1CC[C@@H](CC(=O)N2CCN(c3ccccc3)CC2)O[C@H]1CO)c1ccccc1
  x	-1	5	-1.0	x	i	1.4	x	x
40: CCCCc1ccc(S(=O)(=O)NCCCN2CCCC2=O)cc1
  0.68	0	-2	0.6	0	i	-2.4	x	5.3
41: CCOc1cccc(C(=O)N(Cc2ccco2)C2CCS(=O)(=O)C2)c1 (centres undefined)
  0.7	x	x	x	-7	x	x	22%	-0.7
42: CC(C)(C)NC(=O)C(c1ccc(-c2ccccc2)cc1)n1c(=O)c(-c2ccccc2)nc2ccccc21 (centres undefined)
  x	10	13	-3.1	x	i	-2.9	x	0.6
43: O=C(c1ccccc1)N1CCN(c2ncnc3c(-c4ccccc4)nsc23)CC1
  0.73	13	6	0.8	-3	i	4.7	-1%	-0.4
44: N/C(=N\OC(=O)COc1ccc(Cl)cc1)c1cccnc1
  0.69	21	15	4.7	x	i	-2.7	x	-2.2
45: CNC[C@@H]1Oc2c(NS(=O)(=O)c3cccs3)cccc2C(=O)N([C@@H](C)CO)C[C@@H]1C
  x	2	15	-1.2	x	i	-0.9	x	x
46: CCCCc1nc2ccccc2c(NC(=O)CN2CCCC2)c1CCC
  0.61	x	x	x	-4	x	x	-3%	-0.3
47: NC1=NC(=O)C(=Cc2ccccc2)S1
  x	7	4	0.5	x	i	-0.8	1%	11
48: O=C(N1CCOCC1)C1(S(=O)(=O)c2ccccc2)CC=CC1
  x	-1	0	-2.5	2	i	-5.2	x	-0.1
49: O=C(Nc1cccc(-c2cn3c(n2)SCC3)c1)c1ccc(Br)o1
  0.71	3	8	6.1	8	i	0.5	-6%	-1.4
50: CCN1CCCC1CNC(=O)c1ccc2c(c1)NC(=O)/C(=C\c1ccc(OC)c(OC)c1)S2 (centres undefined)
  0.69	-1	2	17	-32	i	40*	x	-1.7
51: COc1cccc(S(=O)(=O)N[C@@H]2C=C[C@@H](CC(=O)NCc3ccncc3)O[C@@H]2CO)c1
  x	2	-1	-0.7	x	i	0.1	x	x
52: CC1(C)CC(=O)C(C2=NC3(CCCCCC3)Cc3ccccc32)=C(O)C1
  0.67	-29	-32	-9.6	-5	i	2.1	1%	2.5
53: CC(C)NC(=O)Nc1ccc2c(c1)C(=O)N([C@H](C)CO)C[C@@H](C)[C@H](CN(C)C(=O)Nc1ccc3c(c1)OCO3)OCCCC[C@@H](C)O2
  x	-4	-5	-1.7	x	i	1.0	x	x
54: FC(F)(F)c1cccc(N2CCCCC2)c1
  x	9	16	-0.4	x	i	-7.1	x	-0.5
55: O=C(ONC1=NCCCCC1)c1c(F)cccc1F
  0.69	x	x	x	0	x	x	0%	-1.5
56: CC1=C(C(=O)OC2CCCCC2)C(c2ccc(N(C)C)cc2)NC(=O)N1 (centres undefined)
  0.67	4	11	-1.6	34	i	2.6	x	1.3
57: COc1ccc(C)cc1NC(=O)CNC(=O)c1sc2ccccc2c1Cl
  0.64	8	24	-0.9	0	i	-9.0	1%	1.1
58: O=C(NCc1nc2ccccc2[nH]1)c1ccc(S(=O)(=O)N2CCOCC2)cc1
  0.74	x	x	x	-11	x	x	3%	1.4
59: CCCN(C)C[C@@H]1Oc2cc(-c3ccccc3OC)ccc2S(=O)(=O)N([C@H](C)CO)C[C@@H]1C
  x	0	-2	-1.7	x	i	1.6	x	x
60: COC(=O)CSc1nc2cc3c(cc2cc1C)OCCO3
  0.74	x	x	x	-39	x	x	4%	4.2
61: CC(C)NC(=O)N(C)C[C@H]1Oc2c(NC(=O)Nc3cccc4ccccc34)cccc2C(=O)N([C@@H](C)CO)C[C@@H]1C
  x	-2	-1	1.1	x	i	-0.5	x	x
62: CCOc1ccc(OCc2ccc(C(=O)N(C)c3ccccc3)o2)cc1
  0.69	-36	-44	-5.2	-11	i	1.5	x	2.7

Single records, as listed above.
Profile of CCCCc1nc2ccccc2c(NC(=O)CN2CCCC2)c1CCC = E coli growth = 0.61; Ecoli rRNA inh = x; Ecoli rRNA inh OD600 = x; Ecoli rRNA inh RFP = x; ALR H2O2 inh = -4; FGF22 binding = x; MLL AF4-AF9 inh = x; Vif A3G = -3%; HNF4A DNA FP = -0.3
Profile of O=C(NC1CCCCC1)c1[nH]c(C(F)(F)F)nc1-c1ccccc1 = E coli growth = x; Ecoli rRNA inh = -10; Ecoli rRNA inh OD600 = -31; Ecoli rRNA inh RFP = 2.5; ALR H2O2 inh = x; FGF22 binding = i; MLL AF4-AF9 inh = -2.0; Vif A3G = x; HNF4A DNA FP = 1.3
